# Screens (PubChem)
# RE007 growth inh = less growth of the S. pombe RE007 Vpr strain; S. pombe RE007 Vpr strain, BacTiter-Glo ATP luminescence, 24 h; control for the full effect not named in the record; Potency, µM (series often up to 92.2 µM), without a hit: top-dose activity change, negative = less growth; 360,000 compounds, 0.21% hits; AID 651644; active = well fitted falling curve with a large enough effect; inconclusive = small, poorly fitted or top-dose-only effect; inactive = no such curve, though single readings can be large or run the other way;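 note: nearly all actives have a fitted effect of over 50% in size; the assay follows cell death caused by Vpr and the record does not say whether a fall means rescue or toxicity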
#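 Fission yeast strain RE007, carrying one chromosomally integrated HIV-1 vpr copy, was seeded at OD 0.01 in PMG+AL medium with 23 nL pinned compound. After 24 h at 30 °C and 99% humidity, viability was read by BacTiter-Glo luminescence.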
# StopGo reporter = lowers the luciferase signal of an FMDV 2A StopGo reporter; human cells with a luciferase reporter of 2A StopGo recoding; control for the full effect not named in the record; Potency, µM (doses to about 57.9 µM), without a hit: at the highest dose signal change, negative = less light; 410,000 compounds, 1.2% hits; AID 1159524; active = well fitted falling curve with a large enough effect; inconclusive = small, poorly fitted or top-dose-only effect; inactive = no such curve, though single readings can be large or run the other way; tested in HEK293T cells; note: nearly all actives have a fitted effect of over 45% in size; luciferase light after 4 h
# An asterisk follows results filed as active; u = inconclusive; [ ] = another dose, or the depositor's remark. % is set by controls: 0 for no effect and ±100 for the full control effect; potency is the fitted concentration of half-maximal effect.
structure	RE007 growth inh	StopGo reporter
O=C(Nc1ccn(CCOC(=O)c2ccccc2)c(=O)n1)c1ccccc1	-2%[18.4 µM]	0%
O=C1c2ccccc2C(c2nnnn2Cc2ccccc2)N1Cc1ccc2c(c1)OCO2 (configuration not stated)	21%	12%
COc1ccccc1OCC(=O)N1CCCCCC1	-12%	2%
CCc1nc2ccc(C(=O)NCc3ccc4c(c3)OCO4)cn2c1N(C)Cc1ccc(OC)cc1	-11%	-19%
CCCCn1nnnc1C(CCc1ccccc1)N1CCN(C/C=C/c2ccccc2)CC1 (configuration not stated)	-17%	0%
CC(N)c1csc(NC(=O)Nc2cccc(C(F)(F)F)c2)n1 (configuration not stated)	3%	-16%
CC(C)C[C@H]1CNC(=S)N1C[C@H]1CCCN1C[C@H](Cc1ccc(O)cc1)N1C[C@H](CC(C)C)N(CC2CCCCCC2)C1=S	-5%	-23%
O=C(NCc1ccc(Br)cc1)OC1CC2CC1[C@H]1CCCCN1C2=O (some centres not stated)	-9%	-20%
CCCC(=O)N1CCC1(C)C(=O)NS(=O)(=O)c1cccc(F)c1 (configuration not stated)	2%	3%
CCOC(=O)[C@]12CCC=C1N(Cc1ccc(Cl)cc1Cl)C(=O)[C@H](CC(=O)NCc1cccc(C(F)(F)F)c1)C2	32%	-27%
COCCCN1C(=O)C(CC(=O)NCCN2CCOCC2)CC(C(=O)N2CCOCC2)=C1C (configuration not stated)	-5%	0%
Cn1c(NCCN2CCCC2)nc2cc(-c3ccsc3)sc2c1=O	-6%[18.4 µM]	2%
Cc1ccc(S(=O)(=O)C[C@@H]2OC[C@H](C)N2S(=O)(=O)c2ccc(C)cc2)cc1	10%	2%
COc1ccc(NC(=O)c2cccc3c(-c4cccnc4)coc23)cc1	12%	-16%
CC1(C(=O)Nc2ccc(Cl)cc2)Cc2c(-c3cccc(C(N)=O)c3)ccnc2O1 (configuration not stated)	-2%[18.4 µM]	-18%
CC(=O)C1=CCC(c2ccc(C)cc2)N(S(=O)(=O)c2ccc(C)cc2)C1 (configuration not stated)	6%	7%
COc1cc(CN2C[C@@H](CO)O[C@@H](n3cnc4c(N5CCN(C)CC5)ncnc43)C2)cc(OC)c1OC	-7%	-24%
COc1ccc(S(=O)(=O)Nc2ccc3c(c2)C(=O)N([C@H](C)CO)C[C@H](C)[C@@H](CN(C)S(=O)(=O)c2cn(C)cn2)OCCCC[C@H](C)O3)cc1	8%	-9%
COc1ccc(-n2ccnc2SCC(=O)c2c(N)n(C3CC3)c(=O)[nH]c2=O)cc1	5%	-21%
CCCCCNC(=O)C(c1ccc(OC)cc1)n1c(=O)c(-c2cc3ccccc3[nH]2)nc2ccccc21 (configuration not stated)	-14%	-7%
Cc1cc(C(=O)N2CCC2(C)C(=O)Nc2cccc3c2CCCC3)nn1C (configuration not stated)	4%[18.4 µM]	-14%
Cc1nn(C)cc1C(=O)c1ccccc1	-12%	-6%
O=C1NC(O)CCN1C1CC(O)C(CO)O1 (configuration not stated)	6%	-6%
COc1ccc(-c2nc3ccc(Cl)cn3c2Cc2ccccc2)cc1OC	7%	8%
Cc1nc(Nc2ncc3c(n2)CC(C)(C)CC3=O)nc2ccccc12	10%	2%
OCc1ccccc1Cn1ccnc1	-5%	-11%
CCCCC(=O)NC(c1ccc(OC)cc1)c1ccc2cccnc2c1O (configuration not stated)	6%	-19%
COc1ccc(OC)c(NC(=O)C2(C)CCN2CCOc2ccccc2)c1 (configuration not stated)	0%	-28%
COc1cc(/C=C/C(=O)OCC(=O)N2CCN(S(=O)(=O)c3ccc(C)cc3C)CC2)ccc1OC(F)F	0%	-9%
Cc1ccc2c(c1)C=CC(C#N)N2C(=O)Oc1ccccc1 (configuration not stated)	-15%	0%
CN1OC[C@@H]2CN(Cc3ccccc3)[C@H](c3cccc(-c4ccccc4)c3)C[C@@H]21	-6%	u
CCCCn1c(SCCN2CCCCC2)nc2c1c(=O)n(C)c(=O)n2C	-17%	-30%
COC(=O)c1ccc2nc(-c3cccc(Cl)c3)c(Cc3cccc(F)c3)n2c1	u	-21%
CCCCNC(=O)C(NC(=O)c1cnccn1)C(=O)c1ccccc1 (configuration not stated)	0%	-5%
CCc1ccc2c(c1)NC(=O)C2(C)Cc1ccc(C(F)(F)F)o1 (configuration not stated)	-12%[18.4 µM]	-16%
COCOc1ccc(-c2ncc(OC)nc2NC(=O)c2ccsc2)cc1	-5%[18.4 µM]	-24%
CCOP(=O)(OCC)C(Cc1ccc(OC)c(OC)c1)N=C(c1ccccc1)c1ccccc1 (configuration not stated)	-2%[18.4 µM]	-10%
CC(C)CC1OC(C)CC2=C1C(=O)OC(C)(C)O2 (configuration not stated)	5%	0%
Cc1cc(S(=O)(=O)Nc2ccc(C(=O)NC3CC3)cc2)ccc1F	-5%	-2%
COc1ccccc1NS(=O)(=O)c1cccc(C(=O)NCC(c2cccs2)N(C)C)c1 (configuration not stated)	-2%	-20%
CCCCn1nnnc1C(c1cccs1)N1CCC2(CC1)C(=O)NCN2c1ccccc1 (configuration not stated)	6%	5%
COc1ccc(-c2ccc(CN3C(C(C)C)C(=O)N(Cc4cn(Cc5ccco5)nn4)CCS3(=O)=O)cc2)cc1OC (configuration not stated)	10%	-15%
C#CCOCC1CN(c2ccccc2)C(=O)O1 (configuration not stated)	11%	-7%
CCOc1ccc(CCN2C(=O)C(=O)N([C@@H](CC(C)C)CN3CCC[C@H]3CN3C(=O)C(=O)NC[C@@H]3CC(C)C)C[C@@H]2Cc2ccc(O)cc2)cc1	2%	4%
O=C(NCCc1ccc(O)c(Br)c1)c1ccc(Br)o1	3%	-3%

# Reformatted with two lines to a compound: entries from further up.
# The line under a structure holds: RE007 growth inh, StopGo reporter
- Cc1cc(S(=O)(=O)Nc2ccc(C(=O)NC3CC3)cc2)ccc1F
    -5%, -2%
- COc1ccccc1NS(=O)(=O)c1cccc(C(=O)NCC(c2cccs2)N(C)C)c1 (configuration not stated)
    -2%, -20%
- CCCCn1nnnc1C(c1cccs1)N1CCC2(CC1)C(=O)NCN2c1ccccc1 (configuration not stated)
    6%, 5%
- COc1ccc(-c2ccc(CN3C(C(C)C)C(=O)N(Cc4cn(Cc5ccco5)nn4)CCS3(=O)=O)cc2)cc1OC (configuration not stated)
    10%, -15%
- C#CCOCC1CN(c2ccccc2)C(=O)O1 (configuration not stated)
    11%, -7%
- CCOc1ccc(CCN2C(=O)C(=O)N([C@@H](CC(C)C)CN3CCC[C@H]3CN3C(=O)C(=O)NC[C@@H]3CC(C)C)C[C@@H]2Cc2ccc(O)cc2)cc1
    2%, 4%
- O=C(NCCc1ccc(O)c(Br)c1)c1ccc(Br)o1
    3%, -3%

# Remaining list, next part:
structure	RE007 growth inh	StopGo reporter
COc1ccc(C(=O)C2CCCN(CC3CCCCC3)C2)cc1OC (configuration not stated)	u	-2%
Cc1ccc(S(=O)(=O)N2[C@@H](CO)CO[C@H]2CC(=O)c2ccccc2)cc1	0%	-7%
CSc1ccc(C(O)c2ncc(-c3cccc(OCc4ccccc4)c3)[nH]2)cc1 (configuration not stated)	-1%[18.4 µM]	-5%
O=C(Nc1cccc(S(=O)(=O)N2CCCC2)c1)[C@H]1C[C@H](O)[C@@H](CO)O1	13%	-11%
Cn1nc(C(C)(C)C)cc1NC(=O)C1(C)CCN1C(=O)c1ccccc1CCc1ccccc1 (configuration not stated)	-18%	u
CC(C)C1Cc2[nH]c(=S)[nH]c(=O)c2C(c2ccc(Cl)cc2)O1 (configuration not stated)	11%	-12%
CC1=C(C(=O)N2CCOCC2)CC(CC(=O)NCC2CCCCC2)C(=O)N1CCCN1CCCC1=O (configuration not stated)	-12%	-12%
O=C(C1CCCCC1)N1C[C@H](O)[C@@H](n2cc(C3CC3)nn2)C[C@@H]1c1ccccc1	12%	-10%
Cc1cc(C)c(S(=O)(=O)N2CCN(C(=O)c3ccc(-n4nc(C)c(Cl)c4C)cc3)CC2)c(C)c1	-25%	-21%
Cc1cc(F)ccc1-c1cc(C(=O)Nc2ccccc2)[nH]n1	-19%	-24%
C[C@H](CO)N1C[C@H](C)[C@@H](CN(C)C(=O)OCc2ccccc2)OCc2cn(nn2)CCCC1=O	-4%	-23%
COCCNc1nc(NCc2ccc(C(C)C)cc2)c2sccc2n1	-5%	u
Cc1ccc2nc(C(C)(C)C)c(Cc3ccccc3C(F)(F)F)n2c1	u	-4%
COc1cccc(NC(=O)N(C)C[C@H]2Oc3cc(Br)ccc3S(=O)(=O)N([C@H](C)CO)C[C@H]2C)c1	-24%	-4%
CC(=O)Nc1ccc(C(=O)N2CCCCC2c2cc(C(=O)NCc3ccc(F)cc3)no2)cc1 (configuration not stated)	16%	-9%
Cc1cccn2c(=O)c3cc(C(=O)NCc4ccc(F)cc4)c(=N)n(CCCN4CCOCC4)c3nc12	5%	4.5µM*
CCOC(=O)/C(C#N)=N/Nc1ccc(S(=O)(=O)Nc2cc(OC)nc(OC)n2)cc1	12%	4%
Cc1cc(C)n2c(NC3CCCCC3)c(-c3ccc(F)cc3)nc2n1	u	-12%
O=C(NCc1ccc(F)c(F)c1)c1cccc2c(-c3cccnc3)coc12	-5%	u
CCN(CC(=O)Nc1ccccc1C(F)(F)F)C(=O)c1ccc(NC(=O)c2cccs2)cc1	4%	-21%
O=C(NCc1ccccc1Cl)C1CCN(C(=O)c2ccc(F)cc2)CC1	7%	-20%
COc1cccc(-c2cnc3c(NC(C)=O)cc(-c4cccc(NC(C)=O)c4)cn23)c1	2%	1%
CC1=C(C(=O)N(C(C)C)C(C)C)CC(CC(=O)NCCCN(C)C)C(=O)N1Cc1ccc(C(C)(C)C)cc1 (configuration not stated)	-20%	-24%
CC1(C(=O)NC2CCN(Cc3ccccc3)CC2)CCN1Cc1ccc2ccccc2c1 (configuration not stated)	-13%[18.4 µM]	u
COc1ccc(C(=O)ON=C(C)c2nccs2)cc1	u	9%
Cn1nc(C(C)(C)C)cc1N1C(=O)CCC1(C)C(=O)NC1CCCCC1 (configuration not stated)	-1%	-19%
C[C@@H]1CN([C@H](C)CO)C(=O)CCCn2nncc2CO[C@H]1CN(C)C(=O)Oc1ccc2ccccc2c1	18%	-16%
O=C1NCN(c2ccccc2)C12CCN(C(c1ccccc1)c1nnnn1Cc1ccccc1)CC2 (configuration not stated)	-8%	-5%
CN(C)c1ccc(-c2cccc3nccn23)cc1	-13%[18.4 µM]	37%[activator]
CCC(CC)C(=O)N(C)c1c(C)nc2c(OCc3ccccc3OC)cccn12	-18%	u
CCCCN1C[C@H](Cc2ccccc2)[C@@H](CC(=O)Nc2ccc(OC)cc2)C1=O	19%	-10%
COC(=O)C1=C(c2cc3ccccc3o2)C[C@@H]2CC[C@H]1N2C(=O)NCc1ccc(C(F)(F)F)cc1	-7%	-18%
O=C(O)c1ccc(C(S(=O)(=O)c2ccccc2)S(=O)(=O)c2ccccc2)cc1	6%	-7%
CC(=O)N1C[C@H]2CON(C)[C@H]2C[C@H]1c1ccc(-c2ccccc2)cc1	5%	-14%
CC(=O)Nc1cccc(-c2ccnc3c2CC(C)(C(=O)NCc2ccc(N(C)C)cc2)O3)c1 (configuration not stated)	-8%[18.4 µM]	u
O=C(Cc1cccc(NC(=O)C2CCN(S(=O)(=O)c3cccc([N+](=O)[O-])c3)CC2)c1)Nc1cccc(C(=O)N2CCCCC2)c1	0%	-18%
CCOC(=O)[C@]12Cc3c(cc(OC)c(OC)c3OC)[C@H]1N(C(C)C)C(=O)c1cc(OC)ccc12	-21%	14µM*
c1ccc(-c2ccc3sccc3n2)cc1	-24%	52%[activator]
Cc1nc2c(OCc3ccc(F)c(F)c3)cccn2c1N(C)C(=O)CCC1CCCC1	8%[18.4 µM]	u
CCCc1ccc(C(O)c2ncc(-c3ccc(C)cc3)[nH]2)cc1 (configuration not stated)	-28%	8%
O=C(Nc1ccc([N+](=O)[O-])cc1)OC1CCS(=O)(=O)C1 (configuration not stated)	16%	0%
CCOC(=O)C1(C)CCN1C(=O)c1ccoc1 (configuration not stated)	-3%[18.4 µM]	-7%
O=C(NCc1ccccc1)C(CCc1ccccc1)n1c(=O)c(-c2cc3ccccc3[nH]2)nc2ccccc21 (configuration not stated)	6%	1%
CC(C)n1nnnc1C1c2ccccc2C(=O)N1CCc1c[nH]c2ccccc12 (configuration not stated)	2%	48%[activator]
CN(C)c1ccc(-c2ccnc3c2CC(C)(C(=O)Nc2cccc(Oc4ccccc4)c2)O3)cc1 (configuration not stated)	4%	-2%
CC(C)CC1C(=O)N(Cc2cn(CCC3OCCO3)nn2)CCS(=O)(=O)N1Cc1ccc(-c2cccc(N(C)C)c2)cc1 (configuration not stated)	7%	-29%
CC(=O)C[C@H]1c2ccccc2S(=O)(=O)N1C1CCCC1	0%	30%
COc1ccc(-c2cc(NC(C)=O)c3ncc(-c4cccc(C(F)(F)F)c4)n3c2)c(OC)c1	5%	-25%
Cc1cccc(CC(=O)NCCS(=O)(=O)N2CCN(c3ccccc3)CC2)c1	6%	-12%
COc1ccc(NC(=O)C2(C)Cc3c(-c4ccc(NC(C)=O)cc4)ccnc3O2)cc1 (configuration not stated)	-18%	0%

# This is a subset. The share of hits here may be higher or lower than overall.
